# NPYLR7 agonist = agonists of mosquito NPYLR7 receptor, primary screen, cell-based, Aedes aegypti, calcium fluorescence, mosquito biting behavior; Aedes aegypti neuropeptide Y-like receptor 7 (NPYLR7); activation, % at 10 µM; HEK293T NPYLR7/Galpha15, GCaMP6s calcium fluorescence; AID 1259423, 2018; 0.15% of 270,000 active; in the data active means activation above about 40%;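 further: 0% = vehicle and 100% = reference agonist at the receptor; some compounds past the cut are filed as inactive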
# NPYLR7 agonist max-min = also measured in NPYLR7 agonist; calls as there; activation, %; measured here: Max-Min RFU normalised activation; some inactives read as strong as hits;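 span of the calcium signal over five minutes; 0% = vehicle and 100% = native peptide agonist; compound fluorescence can raise it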
# The depositor's hits bear a star.
SMILES,NPYLR7 agonist,NPYLR7 agonist max-min
COCCNC(=O)c1coc(CN(Cc2cccc(OC)c2)C(C)C(C)C)n1 (stereo unspecified),14,29
COc1ccc(C2c3cc(OC)c(OC)cc3CCN2C(=O)c2c(F)c(F)c(F)c(F)c2F)cc1OC (stereo unspecified),15,1
Cc1nn(C)c(=O)c(C(=O)Nc2ccn(CC(F)F)n2)c1C,-3,-3
CCCCN1CC(c2nc3ccccc3n2CCCOc2cccc(OC)c2)CC1=O (stereo unspecified),-1,-4
O=C(c1ccc(C(F)(F)F)cc1)N1CCCC(OCc2ccccc2Cl)C1 (stereo unspecified),-9,-4
O=c1[nH]c(=O)c2sc3nc(-c4ccccc4)ccc3c2[nH]1,-9,-18
CC1=NNC(=O)C1Sc1n[nH]c(=O)[nH]c1=O (stereo unspecified),-7,-7
COC(=O)c1ccc(NC(=O)CSc2cn(CC(=O)N3CCC(C)CC3)c3ccccc23)cc1,-14,-17
CC(C)(C)c1cc(NC(=O)c2ccc(OC(F)(F)F)cc2)n(-c2cc(Cl)ccc2Cl)n1,4,-2
Cc1ccc(S(=O)(=O)Nc2ccc([N+](=O)[O-])cc2C(=O)Nc2cccc3c2C(=O)c2ccccc2C3=O)cc1,-6,-7
CCc1cc(CN2CCCCC2c2nc3ccc(F)cc3[nH]2)on1 (stereo unspecified),0,-1
CC(Nc1cccc(S(=O)(=O)N2CCOCC2)c1)C(=O)Nc1ccccc1F (stereo unspecified),6,4
C#CCOCC(O)CNC(c1nc(-c2ccc([N+](=O)[O-])cc2)no1)C(C)C (stereo unspecified),11,13
O=C(NCc1ccc(N2CCOCC2)cc1)c1cn(Cc2ccccc2F)nn1,17,4
Cc1cc(S(=O)(=O)NC2CC(C)(C)NC(C)(C)C2)c(C)cc1Cl,8,7
CCn1cc(C(=O)N2CCc3c(nc(-c4ccccc4)nc3N(C)C)C2)cn1,5,3
Cc1cc(Oc2ccc(Cl)c(C)c2)nc(SCc2ccccc2C#N)n1,-7,2
CCC1CN(C(=O)c2ncccc2O)CCC(=O)N1Cc1ccccc1 (stereo unspecified),0,15
COc1ccc2sc(SCc3csc(Cc4ccc(Br)c(OC)c4)n3)nc2c1,6,10
O=C(O)C1CC2CCCCC2N1C(=O)Cn1ccc(C(F)(F)F)n1 (stereo unspecified),-13,-15
Cc1c(C(=O)NCc2ccccc2C(F)(F)F)sc(=O)n1Cc1cccc(C(F)(F)F)c1,16,9
CCCS(=O)(=O)N1CC(=O)N(Cc2cccc(OC)c2OC)CC(O)C1 (stereo unspecified),0,10
CN(C)S(=O)(=O)N1CCCC1C(=O)Nc1cccc(-n2cccn2)c1 (stereo unspecified),1,-4
CSc1ccc(OC(C)C(=O)N(C)CCC#N)cc1 (stereo unspecified),6,2
O=C(NCCCc1cccc(F)c1)NC1CCCC1CO (stereo unspecified),-1,-1

# The list goes on:
SMILES,NPYLR7 agonist,NPYLR7 agonist max-min
O=C(CSc1nccn(-c2ccc(F)c(Cl)c2)c1=O)NC1CCCCC1,-2,-1
CC(C)Nc1ncccc1C(=O)NCCc1ccc(O)cc1,-20,-28
CCOCCn1c(=NC(=O)c2ccc(S(C)(=O)=O)cc2)sc2cccc(F)c21,4,1
N#Cc1cc2c(=O)n3ccccc3nc2n(-c2ccc(Br)cc2)c1=O,1,0
COc1ccccc1/C=C1\SC(=S)N(CCC(=O)NNC(=O)c2ccccc2Cl)C1=O,-6,-17
CC(=O)N[C@@H](Cc1c[nH]c2ccccc12)C(=O)OCc1cc(C(F)(F)F)cc(C(F)(F)F)c1,7,-9
Cn1c(-c2cccnc2)[n+](C)c2ccccc21,5,3
Cc1cc(C)c2c(n1)nn1c(N3CCCC3)cc(C)nc21,2,15
COC(=O)c1ccc(CSc2ncc(CO)n2CC(=O)NCc2ccc(Cl)cc2)cc1,4,0
O=Cc1ccc(Oc2ccc(-c3cnc4ccccc4n3)cc2[N+](=O)[O-])cc1,-13,-15
COCCN(Cc1ccccc1OS(C)(=O)=O)C(=O)NC(C)C,-8,-6
C[C@H](C(=O)Nc1ccc2c(c1)OCO2)N1Cc2ccc(-c3ccnn3C)nc2C1=O,-14,-15
CSc1ccc(CN2CCC2(C)C(=O)Nc2ccc3c(c2)OCO3)cc1 (stereo unspecified),7,2
CC(OC(=O)c1csc2c1CCCC2)C(=O)N(C)Cc1ccccc1 (stereo unspecified),-2,-4
Cc1nc(Cn2c(O)cn(C3CCCC3)c2=O)nc2ccccc12,3,3
COC(=O)C1=C(O)/C(=C\c2ccc(OC)cc2O)SC1=Nc1ccc(OC)c(OC)c1,-9,3
Cc1ccc(-n2c(C)cc(/C=N\NC(=O)CN3CCOCC3)c2C)c(C)c1,-4,-8
CC(=O)NCc1ccc(C(=O)NCc2c(C)noc2C)s1,8,6
O=C(CCSc1nnc(C2CCCCC2)o1)NC(=O)Nc1ccc2c(c1)OCO2,-1,1
O=S(=O)(Cc1cccc(Cl)c1)Cc1ncc(-c2ccccc2)o1,-3,-3
CCN=c1scc(-c2ccc(F)cc2)n1/N=C\c1cc(C)ccc1C,0,-2
CCCS(=O)(=O)N1CCc2[nH]c3ccc(F)cc3c2C1,11,10
CC(C)[C@H](CO)Nc1nccc2[nH]c(-c3ccc(F)c(F)c3)nc12,-6,-9
COc1ccc(S(=O)(=O)Oc2ccccc2CNCc2ccco2)cc1,28,21
CCCCOC(=O)N1CCC2(CC1)NC(=O)[C@H](O)[C@@H]2C(=O)OCC,9,21

# Reformatted with tabs: 6 of the compounds above.
SMILES	NPYLR7 agonist	NPYLR7 agonist max-min
Cc1cc(C)c2c(n1)nn1c(N3CCCC3)cc(C)nc21	2	15
O=S(=O)(Cc1cccc(Cl)c1)Cc1ncc(-c2ccccc2)o1	-3	-3
CSc1ccc(CN2CCC2(C)C(=O)Nc2ccc3c(c2)OCO3)cc1 (stereo unspecified)	7	2
Cc1cc(S(=O)(=O)NC2CC(C)(C)NC(C)(C)C2)c(C)cc1Cl	8	7
N#Cc1cc2c(=O)n3ccccc3nc2n(-c2ccc(Br)cc2)c1=O	1	0
COc1ccccc1/C=C1\SC(=S)N(CCC(=O)NNC(=O)c2ccccc2Cl)C1=O	-6	-17

# (next part)
SMILES,NPYLR7 agonist,NPYLR7 agonist max-min
O=S(=O)(c1cc(Br)ccc1Br)N1CCN(c2ccccn2)CC1,-5,-8
COc1ccccc1OCCn1c2ccccc2c2nc3ccccc3nc21,7,5
N#Cc1ccc(CN2CCN(C(=O)c3cc4ccccc4o3)CC2)cc1,1,-6
CCOc1ccccc1NC(=O)c1nnn(Cc2nc(-c3cccc(OC)c3OC)oc2C)c1C,6,-5
O=C(Cn1nc(-c2cccs2)oc1=O)Nc1cccc(I)c1,0,5
CCCN1CNC(=S)N(C2CCCCC2)C1,5,9
Cc1ccc(C(NC(=O)Cn2cnc3ccc(C)cc3c2=O)C2CC2)cc1 (stereo unspecified),9,-1
CC(C)(C)SCC(=O)NCC(CO)Cc1ccc(Cl)cc1 (stereo unspecified),2,0
COc1ccc(-n2c(-c3ccccc3)cc(C(=O)N3CCN(S(=O)(=O)c4ccc(C(C)(C)C)cc4)CC3)c2C)cc1OC,4,6
O=C(O)C1CC(=O)N(Cc2cc(-c3ccccn3)no2)C1 (stereo unspecified),12,-5
CCCCN(C(=O)COC(=O)c1ccccc1S(C)=O)c1c(N)n(CCC)c(=O)[nH]c1=O (stereo unspecified),3,0
CC1CN(S(=O)(=O)N(Cc2c(F)cccc2Cl)C2CC2)CC(C)O1 (stereo unspecified),2,4
O=S(=O)(c1cccc(F)c1)N1CCC(Cc2ccc(-n3cccc3)cc2)CC1,5,8
O=c1c(=O)n2c(nn1Cc1ccc(C(F)(F)F)cc1)N(c1ccc(F)cc1)CC2,11,8
COc1cccc(-c2noc(CCCC(=O)NC3CCNC3)n2)c1 (stereo unspecified),1,-5
Cc1nn(C)c(C)c1CCC(=O)N1CCN(S(=O)(=O)c2ccc(F)c(Cl)c2)CC1,-2,-1
CCCn1c(=O)c2c(nc3n2CC(C)=NN3C)n(C)c1=O,3,0
CC(C)NS(=O)(=O)c1cccc(CNc2ncnc3ccccc23)c1,8,6
Cc1ccc2nc(C)cc(C)[n+]2c1,-1,49
O=c1n(CN2CCN(S(=O)(=O)c3cccc(F)c3)CC2)nc2ccccn12,-5,-7
CCc1cc(CN(C)C(=O)c2cc3ccccc3s2)on1,-3,-4
Cc1ccc(CNc2ccc(N3CCN(C)CC3)nc2)c(C)c1,20,17
COc1ccc(C)cc1-n1ccc2c(cnc3ncnn32)c1=O,3,6
CON(C)C(=O)CS(=O)(=O)NC1CCC(C)CC1 (stereo unspecified),5,6
O=C(c1cncc(Br)c1)N1CCCN(c2nc3ccccc3nc2-c2ccccc2)CC1,12,15

# The listing continues.
SMILES,NPYLR7 agonist,NPYLR7 agonist max-min
CC1CCN(C(=O)c2cnn3c(C(F)(F)F)cc(-c4cccs4)nc23)CC1,0,0
O=C(CC(c1ccccc1)c1ccccc1F)N1CCN(c2cnccn2)CC1 (stereo unspecified),-1,-3
CCCCn1c(N2CCN(Cc3ccccc3F)CC2)nc2c1c(=O)[nH]c(=O)n2C,6,0
COCCN(CC(=O)N(CCc1c[nH]c2ccccc12)Cc1ccccc1OC)C(=O)/C=C/c1ccccc1,17,29
FC(F)(F)c1ccccc1CCNc1nncc(-c2ccccc2)n1,-1,-3
O=c1oc(-c2ccccc2Cl)nc2ccccc12,2,-7
CNC(=O)[C@@]1(OCc2ccccc2F)CC(OCc2ccccc2F)[C@@H]2OC(C)(C)O[C@@H]2C1 (stereo partly specified),19,26
COC(=O)C1=C(C)NC2=C(C(=O)CCC2)C1c1ccc(Cl)cc1Cl (stereo unspecified),6,3
Cn1nnc2c(N3CCN(S(C)(=O)=O)CC3)ncnc21,2,4
O=C(O)Cn1cc(I)c(=O)c(I)c1,2,2
C=CCN(CC(=O)N1CCc2sccc2C1c1ccccc1C)S(=O)(=O)/C=C/c1ccccc1 (stereo unspecified),0,6
CCOC(=O)C1CCN(C(C)c2nnnn2-c2ccccc2)CC1 (stereo unspecified),7,5
O=C(c1cc2ccccn2c1)N(Cc1ccncc1)CC1CCCO1 (stereo unspecified),7,5
COc1ccc(-c2nn(Cc3ccc(C)cc3)c(=O)c3nc(C)sc23)cc1OC,1,0
CCCn1c(=O)c2c(nc3n2CC(C)=NN3Cc2ccccc2F)n(C)c1=O,-3,-9
CCN1C(=O)N(C2Cc3ccccc3C2)C(=O)C12CCN(Cc1cccc3ncccc13)CC2,14,5
CCCCNC(=S)N1CCn2cccc2C1c1ccc([N+](=O)[O-])cc1 (stereo unspecified),3,0
CCN1CCCC(CN(C)C(=O)c2scc3c2OCCO3)C1 (stereo unspecified),5,4
CCCN(CC(=O)Nc1cc(C(C)(C)C)nn1-c1ccc(C)cc1)C(=O)C(CC)c1ccccc1 (stereo unspecified),-3,6
CCn1c(-c2ccc(Cl)cc2)nn(CNC2(c3noc(C)n3)CCCC2)c1=S,8,6
O=c1/c(=C\c2ccccc2)sc2nc(-c3cccs3)nn12,-9,-12
CCCC(=O)N1CCCC1(C)C(=O)Nc1cccc(F)c1 (stereo unspecified),5,1
Cc1c(C#N)c(N)nc2c3c(sc12)NC(=O)CC3c1c(F)cccc1Cl (stereo unspecified),19,9
COc1cc(-c2nc(CN3[C@@H]4CC[C@H]3CNC(=O)C4)c(C)o2)cc2c1OCO2,28,16
CSc1ccc2c(c1)CCN(Cc1cc3n(n1)CCNC3)C2,3,1

# New compounds follow
SMILES,NPYLR7 agonist,NPYLR7 agonist max-min
CCOC(=O)CSc1nnc2n1CCN2c1ccc(F)cc1,3,8
Cc1ccc(-n2ncc3c(=O)n(NC(=O)c4ccc(Br)o4)cnc32)cc1,5,5
Cc1cccc(CSc2nnc(CNS(=O)(=O)c3ccc(Cl)cc3)n2-c2cc(Cl)ccc2Cl)c1,-1,4
CCc1c(C)nc(-n2nc(C)cc2C)n(CC(=O)N2CCc3ccccc32)c1=O,0,0
CC(C)Cc1cc(C(=O)N(C)Cc2cnccn2)on1,-5,-9
C=c1onc(-c2ccccc2Cl)c1=C1N=C(c2ccc(Br)cc2)NO1,-10,-14
Cc1occc1C(=O)Nc1ccc(C(=O)NC2(C)CCCCC2)cc1,-5,-4
CC(C)(C)c1ccc(OCCOc2ccc(C=C3C(=O)NC(=O)NC3=O)cc2)cc1,1,0
COc1ccc(-c2noc(-c3c(SC)nn(CC(=O)Nc4cccc(SC)c4)c3N)n2)cc1,-5,-10
Cc1cccc(Oc2ccc(C(=O)N3CC[C@H](CO)[C@H](O)C3)cc2)c1,0,0
CC(C)(C)NC(=O)NC(=O)COC(=O)C12CC3CC(CC(C3)C1)C2,6,5
CN(C)c1ccc(NC(=O)c2ccccc2OCC2CCCO2)cn1 (stereo unspecified),9,6
CNc1cncc(-c2cccc(O)c2)n1,2,0
COc1ccc(CCCC(=O)N2CCN(C)C3(CCN(C)CC3)C2)cc1,8,5
COc1cc(C=NOCc2nnc(-c3ccc(F)cc3)o2)cc(Cl)c1OC,9,12
COc1cccc(CSc2nnc(C(C)NC(=O)Nc3ccc(OC)cc3OC)n2-c2ccc(C)cc2)c1 (stereo unspecified),6,15
Cc1ccc(-n2nc3c(c2NC(=O)/C=C\c2ccccc2)CSC3)c(C)c1,-1,1
COc1ccc(F)cc1S(=O)(=O)Nc1ccc(-c2ccc(N3CCC(C)CC3)nn2)cc1,4,0
Cc1nn(CC(C)C)c(C)c1CCC(=O)N1CCN(C(=O)c2ccoc2)CC1,-2,1
Cc1nc(Nc2ccc(NS(=O)(=O)c3ccc(F)cc3)cc2)cc(-n2ccnc2)n1,-7,-10

# Sorted by SMILES length (high to low): four of the compounds above.
SMILES,NPYLR7 agonist,NPYLR7 agonist max-min
COc1cccc(CSc2nnc(C(C)NC(=O)Nc3ccc(OC)cc3OC)n2-c2ccc(C)cc2)c1 (stereo unspecified),6,15
Cc1cccc(Oc2ccc(C(=O)N3CC[C@H](CO)[C@H](O)C3)cc2)c1,0,0
C=c1onc(-c2ccccc2Cl)c1=C1N=C(c2ccc(Br)cc2)NO1,-10,-14
COc1cc(C=NOCc2nnc(-c3ccc(F)cc3)o2)cc(Cl)c1OC,9,12

# High-throughput results: PubChem, Fisher Drug Discovery Resource Center

# An excerpt; count on the stated rates, not on these rows.
